GALR2 agonist: activates the human galanin receptor 2 | activation, %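 (tested at 5 µM)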 | hit rate 0.48% among 140,000 | GALR2-expressing cells, agonist activation read-out | O43603 | AID 803;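 active = above mean plus 3 SD of all compounds, about 5% in these data, not always enough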;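 note: 0% = vehicle buffer wells and 100% = reference agonist at full effect; tested in CHO reporter cells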
Target sequence (O43603 whole entry, looked up): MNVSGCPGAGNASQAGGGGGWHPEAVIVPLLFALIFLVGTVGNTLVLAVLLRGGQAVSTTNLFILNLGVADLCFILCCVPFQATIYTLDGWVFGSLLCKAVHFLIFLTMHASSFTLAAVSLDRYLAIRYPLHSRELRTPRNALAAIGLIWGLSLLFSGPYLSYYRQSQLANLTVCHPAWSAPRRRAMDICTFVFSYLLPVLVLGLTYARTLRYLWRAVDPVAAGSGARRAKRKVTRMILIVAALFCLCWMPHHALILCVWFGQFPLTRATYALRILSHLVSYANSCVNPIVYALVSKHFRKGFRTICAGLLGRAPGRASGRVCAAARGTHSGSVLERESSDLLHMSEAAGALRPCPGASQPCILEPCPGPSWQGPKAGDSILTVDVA
HSV augment: increases HSV replication in cells | maximum fold increase | hit rate 0.005% among 220,000 | HSV replication augmentation in cells, fold increase;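 active = peak rise of 1.5-fold or more in the series; tested in PC3 cells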;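 note: first round at 10 µM; read as green reporter fluorescence; hits show the peak of a series up to 25 µM; 1 = signal of infected wells without compound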
PKD1 inh: PKD1 (human) kinase inhibition; inhibition, %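 (about 10 µM by stock and volumes)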; Q15139; hit rate 0.056% among 200,000; AID 797; PKD1 kinase fluorescence polarization assay;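 active = inhibition of 50% or more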;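 note: controls were vehicle for no effect and a reference inhibitor for full effect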
Insulin prom inh: TRM-6 insulin promoter activity inhibition. TRM-6 cells (human fetal islet line), insulin promoter-eGFP reporter, imaging; reporter expression induced with tamoxifen. inhibition, % at 2 µM. hit rate 0.9% among 130,000;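 active = inhibition above the mean plus 3 SD, with well images judged a real hit on visual review, cut at about 60% in these data, passing the limit was not always enough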
RGS16-Gao: modulates binding between human RGS16 and Galphao | O15492+P09471 | bead-based flow cytometry RGS16-Galphao binding, fluorescence; actives lie on both sides | binding response (% of control), % at 10 µM | hit rate 0.38% among 220,000;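 active = below 25% or above 175%, edge rows of some plates excepted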;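 note: Galphao activated by GDP with aluminum fluoride before binding; 100% = wells without compound and 0% = beads without RGS; some results beyond the cut were filed as inactive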
Target sequence (O15492 whole entry, looked up): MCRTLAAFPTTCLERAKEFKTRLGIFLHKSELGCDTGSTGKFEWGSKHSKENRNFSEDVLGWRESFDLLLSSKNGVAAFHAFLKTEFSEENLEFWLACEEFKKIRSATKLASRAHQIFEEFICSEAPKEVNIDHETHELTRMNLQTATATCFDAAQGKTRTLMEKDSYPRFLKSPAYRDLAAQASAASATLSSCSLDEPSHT
Target sequence (P09471 whole entry, looked up): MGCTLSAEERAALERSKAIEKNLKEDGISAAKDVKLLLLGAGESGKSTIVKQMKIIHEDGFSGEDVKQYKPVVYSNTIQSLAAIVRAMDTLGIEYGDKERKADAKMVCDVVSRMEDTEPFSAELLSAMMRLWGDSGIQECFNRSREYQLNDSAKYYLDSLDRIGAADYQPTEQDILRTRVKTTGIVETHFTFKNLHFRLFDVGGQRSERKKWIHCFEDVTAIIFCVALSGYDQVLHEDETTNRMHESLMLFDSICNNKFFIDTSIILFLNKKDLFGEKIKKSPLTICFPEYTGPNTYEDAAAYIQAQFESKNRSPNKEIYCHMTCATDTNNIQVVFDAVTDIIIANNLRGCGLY
Insulin prom inh cell count: further read-out of Insulin prom inh, marked with its call; normalized cell count, %; measured here: cell count, toxicity; reference of the scale not given here;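 cells exposed to compound for 48 h; stained nuclei by imaging scaled within each plate; lower means fewer cells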
HSV augment primary fold: further read-out of HSV augment, marked with its call; fold increase; compound at 10 µM; measured here: primary screen fold increase 10 uM; tested in PC3 cells;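 GFP signal in the first replicate; 1 = infected wells without compound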
Starred values were filed as active, the others as inactive; i = inactive; · = no result given.

Values run as follows: GALR2 agonist	HSV augment	HSV augment primary fold	PKD1 inh	Insulin prom inh	Insulin prom inh cell count	RGS16-Gao
> COC(=O)CN(c1ccc2c(c1)OCCO2)S(=O)(=O)c1ccccc1
→ -3.2	i	0.91	0	60	75	111
> COc1ccccc1NC(=O)NCCc1c[nH]c2ccccc12
→ ·	i	0.69	·	·	·	101
> CC(C)CNC(=O)COC(=O)/C=C/c1ccccc1[N+](=O)[O-]
→ -1.5	·	·	6	31	98	103
> O=C(CC1(O)C(=O)N(C/C=C/c2ccccc2)c2ccccc21)c1ccccn1 (centres undefined)
→ -1.1	i	0.9	3	·	·	27
> CC(C)NCC(O)c1cc(O)cc(O)c1 (centres undefined)
→ ·	i	0.89	·	·	·	106
> COc1ccc(Cl)cc1NC(=O)NCCN1CCNC1=O
→ ·	i	0.97	·	·	·	97
> CN(C)CCCNC(=O)CC(c1ccc(F)cc1)c1ccco1 (centres undefined)
→ -1.1	i	0.78	-12	·	·	122
> CC(=O)NCC(=O)N1CCCC(C(=O)c2ccc(Oc3ccccc3)cc2)C1 (centres undefined)
→ ·	i	1.1	2	·	·	89
> COc1ccc(S(=O)(=O)N2CCC(O)(c3cccnc3)CC2)cc1OC
→ ·	i	0.83	-5	-76	51	92
> COC(=O)Cc1cc(=O)oc2cc(OC)ccc12
→ -2.7	i	1.2	-7	17	94	103
> CSc1cc(-c2ccc(Cl)cc2)n(Cc2ccccc2)c(=O)c1C#N
→ 438*	i	0.77	0	12	90	105
> S=c1sc2c(Cl)ncnc2n1-c1ccccc1
→ ·	i	0.6	-1	-150	16	97
> CCOc1ccc(-n2cc(C(=O)N3CCN(C)CC3)c3cc(OC)c(OC)cc3c2=O)cc1
→ 1.0	i	1.1	-5	60	90	100
> CC(=O)Nc1ccc(Nc2cc(C)nc3c(-c4ccc(Cl)cc4)c(C)nn23)cc1
→ 0.3	i	0.6	3	·	·	98
> Cc1cccc(-c2noc(CSc3ccccc3)n2)c1
→ -1.3	i	0.89	-7	-11	187	92
> CC(=O)C1=C(O)C(=O)OC1c1ccc(Cl)cc1 (centres undefined)
→ ·	i	0.95	·	·	·	92
> CN1CCN(NC(=O)c2cc(-c3ccccn3)nc3ccccc23)CC1
→ ·	i	0.96	-5	·	·	100
> Cc1ccccc1NC(NC(=O)c1cccs1)C(Cl)(Cl)Cl (centres undefined)
→ -3.2	i	0.92	3	·	·	82
> Cc1ccc(S(=O)(=O)c2c(N)n(CCCN(C)C)c3nc4ccccc4nc23)cc1
→ ·	i	0.77	·	·	·	93
> COc1cc(C(=O)Nc2nc3ccc(C)cc3s2)ccc1OCc1c(C)noc1C
→ -2.0	i	0.81	0	-13	121	80
> Cn1c(=O)oc2cc(S(=O)(=O)NCc3cccnc3)ccc21
→ ·	i	1.1	·	·	·	101
> Clc1ccc(Cc2ccc(SCc3ccccc3)nn2)c(Cl)c1
→ -1.0	i	0.95	5	3	109	100
> CCOC(=O)C1=NNC(C(=O)c2ccccc2)C1c1ccc(Cl)cc1 (centres undefined)
→ ·	i	1.1	·	·	·	99
> COC(=O)C1CCN(C(=O)C2CCCCC2)CC1
→ -1.7	i	0.9	-1	50	95	103
> Cc1cc(C)nc(SCCC(=O)Nc2ccccc2Cl)n1
→ ·	i	0.96	-2	·	·	103
> CCOC(=O)c1ccc(NC2c3ccccc3C(=O)N2c2cccnc2)cc1 (centres undefined)
→ -1.5	i	0.85	-2	·	·	82
> Cc1c(NC(=S)Nc2cccc(Cl)c2)c(=O)n(-c2ccccc2)n1C
→ ·	i	0.88	-5	-51	78	100
> CCCCCCn1c(=O)c(F)cn(Cc2ccc(OC)c([N+](=O)[O-])c2)c1=O
→ -1.0	i	0.84	-6	-91	79	108
> COc1cc(C(CCN2CCCC2)c2c(OC)cc(OC)c3c(-c4ccccc4)cc(=O)oc23)cc(OC)c1OC (centres undefined)
→ ·	i	0.92	·	·	·	100
> CCO[C@H]1OC(C(=O)N2CCN(C)CC2)=C[C@@H](c2ccc(Br)cc2)[C@@H]1CCCO
→ ·	i	1	6	·	·	98

Part of the list above in another layout.
CCCCCCn1c(=O)c(F)cn(Cc2ccc(OC)c([N+](=O)[O-])c2)c1=O
  GALR2 agonist: -1.0	HSV augment: i	HSV augment primary fold: 0.84	PKD1 inh: -6	Insulin prom inh: -91	Insulin prom inh cell count: 79	RGS16-Gao: 108
COc1cc(C(CCN2CCCC2)c2c(OC)cc(OC)c3c(-c4ccccc4)cc(=O)oc23)cc(OC)c1OC (centres undefined)
  GALR2 agonist: ·	HSV augment: i	HSV augment primary fold: 0.92	PKD1 inh: ·	Insulin prom inh: ·	Insulin prom inh cell count: ·	RGS16-Gao: 100

New compounds follow.
Values run as follows: GALR2 agonist	HSV augment	HSV augment primary fold	PKD1 inh	Insulin prom inh	Insulin prom inh cell count	RGS16-Gao
> COc1ccc(C(=O)N2CCC(C(=O)Nc3cccc(C)c3)CC2)cc1OC
→ -2.6	i	0.84	-6	·	·	75
> Cc1cccc(C(=O)Nc2ccccc2C(=O)NCc2cccnc2)c1
→ ·	i	0.86	-4	·	·	103
> CC(C)CC1NC(=O)N(CC(=O)N2c3ccccc3NC(=O)C2(C)C)C1=O (centres undefined)
→ ·	i	1	1	-25	164	106
> Cc1ccc(-c2cc(C(F)(F)F)n3ncc(C(=O)NCc4ccco4)c3n2)cc1
→ -0.8	i	0.84	-12	-50	113	91
> O=C(C1CC(=O)N(C2CCCC2)C1)N1CCN(c2ccc(F)cc2)CC1 (centres undefined)
→ 0.5	i	0.95	-13	·	·	·
> Cc1cc(C(=O)COC(=O)c2ccccc2Br)c(C)n1CC1CCCO1 (centres undefined)
→ ·	i	0.96	·	·	·	103
> Cc1ccc2nc(Cn3cc(C(F)(F)F)cc(Cl)c3=O)cc(=O)n2c1
→ ·	i	0.99	0	·	·	102
> CC(C)(C)NC(=O)NC(=O)CSc1nnc(-c2ccccc2F)n1N
→ -0.4	i	0.95	-5	12	106	100
> COc1ccc(NS(=O)(=O)c2ccc3oc(Nc4ccc5c(c4)OCCO5)nc3c2)cc1
→ -1.0	i	0.99	-1	57	94	99
> O=C(N/N=C/c1cccc(O)c1)NC1CCCCC1
→ ·	i	0.99	1	·	·	102
> COc1ccc2[nH]c3c(=O)n(Cc4ccc(C(=O)NCC5CCCO5)cc4)c(=S)[nH]c3c2c1 (centres undefined)
→ ·	i	0.93	-7	·	·	97
> CC12CC(c3ccccc3O1)N(C(=O)c1ccco1)C(=S)N2c1ccccc1 (centres undefined)
→ -1.4	i	0.91	2	3	102	100
> Cc1cccc(N/N=C/c2ccccc2O)c1
→ -2.2	i	1.2	-2	·	·	79
> CCOc1ccc(CCNC(=O)C2CCN(c3nnc(-n4cccc4)s3)CC2)cc1OCC
→ -2.5	i	0.93	-1	-13	105	97
> O=C(NC1CCCCCCC1)C1CCCN(S(=O)(=O)c2cnc[nH]2)C1 (centres undefined)
→ -3.0	i	1	-7	·	·	107
> Cc1[nH]c2ccccc2c1C(c1ccncc1)N1CCCCC1 (centres undefined)
→ ·	i	1	1	·	·	98
> Cc1cc(C)nc(SCC(=O)N/N=C/c2cc(C)n(-c3ccccc3C)c2C)n1
→ -0.2	i	1	-2	3	102	103
> Fc1cccc(Cl)c1-c1nnc2ccc3ccccc3n12
→ ·	i	0.85	-5	-91	96	109
> O=C(NCCN1C(=O)CCC1=O)c1ccncc1
→ -0.9	i	0.85	-4	15	53	102
> COc1ccc(C(=O)NCC(=O)N2CCCCC2)cc1OC
→ ·	i	1	-2	-64	107	100
> CCN1CCN(c2ncnc3c2sc(=S)n3-c2ccccc2)CC1
→ 0.1	i	1.1	5	·	·	142
> Cn1nnnc1SCC(=O)NC(=O)Cc1ccccc1
→ -0.9	i	1.1	0	-57	65	105
> COc1ccc2oc(C(=O)NC(C)(C)C)c(C)c2c1
→ ·	i	0.97	-2	·	·	97
> CCOC(=O)CSc1nnc(-c2ccoc2C)n1-c1ccc(C)cc1
→ -0.7	i	0.93	0	-28	71	103
> O=C1CN(O)C=C2N=c3ccccc3=C2N1c1ccc([N+](=O)[O-])cc1
→ ·	i	1	0	17	65	98
> COC(=O)C(NC(=O)c1ccc(Cl)cc1)(Nc1nc(C)cs1)C(F)(F)F (centres undefined)
→ -4.5	i	0.89	-11	-42	65	94
> COc1ccc2nc(Cl)c(C3CC(c4ccco4)=NN3C(=O)CCCC(=O)O)cc2c1 (centres undefined)
→ ·	i	1	·	·	·	97
> COc1ccc(NS(=O)(=O)c2c(C)[nH]c(=O)[nH]c2=O)c(OC)c1
→ 1.6	i	0.99	-2	-73	93	101
> Cc1ccc(NC=C(S(=O)(=O)c2ccccc2)S(=O)(=O)c2ccccc2)c(C)c1
→ -3.2	i	0.95	0	-3	121	102
> CC(=O)Nc1ccc(S(=O)(=O)Nc2nc3ccccc3nc2Nc2ccc(S(N)(=O)=O)cc2)cc1
→ -0.1	i	1.1	0	·	·	100
> N#Cc1c(N)nc(SCC(=O)NC2CCCCC2)c(C#N)c1-c1ccc(Cl)cc1
→ -2.1	i	0.61	-4	·	·	109
> Cc1cc(C)c(NS(=O)(=O)c2ccc(Cl)c(C(=O)O)c2)c(C)c1
→ -2.0	i	1	-1	17	81	103
> Cn1c2ccccc2c2nnc(SCc3ccc4nonc4c3)nc21
→ 1.1	i	0.95	3	-6	119	95
> CCc1ccc(OCC(=O)NCCOc2ccccc2)cc1
→ -2.1	i	0.98	-6	46	94	132
> O=C(O)/C=C/C(=O)N1CCN(S(=O)(=O)c2cc(C(F)(F)F)ccc2Cl)CC1
→ ·	i	1	-2	-85	49	80
> Cc1ccc(C(=O)NC(=S)NCCN2CCOCC2)cc1
→ -1.7	i	0.93	3	-8	84	222
> O=C(CCCc1nc(-c2ccccc2Cl)no1)N1CCOCC1
→ ·	i	0.95	-5	32	97	104
> Cc1onc(-c2ccccc2)c1-c1nc2cc(Cl)ccc2c(=O)o1
→ ·	i	0.83	·	·	·	91
> OC1(c2cccc(C(F)(F)F)c2)CCNCC1
→ 0.4	i	0.89	-8	5	73	106
> CN(C)S(=O)(=O)c1cccc(-c2cn3cc(Cl)ccc3n2)c1
→ -0.8	i	0.96	-10	-40	71	92
> COC(=O)c1ccc(C(=O)OC)c(NC(=O)CN(C)Cc2ccc(Cl)c(Cl)c2)c1
→ 1.1	i	1	-2	·	·	101
> COc1ccccc1NC(=S)NNC(=O)c1c(Cl)c(C)nn1C
→ -2.0	i	1.1	4	·	·	109
> O=C1CCN(C(=S)NCc2ccccc2)CC1
→ ·	i	0.85	-5	·	·	97
> COc1ccc(C(=O)O)cc1S(=O)(=O)NCCN(C)C
→ ·	i	1	·	·	·	100
> Cc1ccc(S(=O)(=O)N2CCC(C(=O)N/N=C/c3ccncc3)CC2)cc1
→ ·	i	0.93	1	43	128	102
> COc1cccc(C(=O)Nc2nnc(Cc3ccc(OC)c(OC)c3)s2)c1
→ ·	i	0.95	·	·	·	102
> COc1ccc(-c2cc(-c3ccccc3)nc3ncnn23)cc1
→ ·	i	0.84	6	·	·	99
> O=C(Cn1ncc(N2CCCC2)c(Cl)c1=O)c1ccc(Cl)cc1
→ ·	i	0.85	-6	-10	92	106
> Fc1ccccc1C1c2[nH]c3ccccc3c2CCN1CCCn1cccn1 (centres undefined)
→ ·	i	1.1	-7	·	·	98
> Clc1ccccc1-c1nnc2sc(CCc3ccccc3)nn12
→ -1.4	i	0.84	-5	16	149	90
> COc1ccc(C(=O)OCN2C(=O)c3ccccc3C2=O)cc1
→ ·	i	1.2	6	-18	79	100
> O=C(COC(=O)c1nc(Cl)ccc1Cl)NCc1ccccc1
→ ·	i	1.1	-3	-35	128	107
> Cc1ccc(S(=O)(=O)NCC(=O)NCC(=O)N2CCN(c3ncccn3)CC2)cc1C
→ ·	i	1.2	·	·	·	86
> O=C(Oc1ccc(OC(=O)c2ccco2)c(S(=O)(=O)c2ccc(Cl)cc2)c1)c1ccco1
→ -1.4	i	1.1	-9	57	86	107
> Cc1ccc(NC(=S)Nc2cccc(-c3n[nH]c(=S)o3)c2)cc1
→ ·	i	0.81	·	·	·	108
> CCOC(=O)c1c(N2C(=O)CC(Sc3ccccc3C(=O)O)C2=O)sc2c1CCCC2 (centres undefined)
→ ·	i	1.1	3	53	100	97
> CC(=O)NS(=O)(=O)c1ccc(NC(=S)NC(=O)C(C)C)cc1
→ -3.2	i	1.1	5	-6	134	99
> Cc1ccc(CCN2CC(C(=O)NCCN3CCOCC3)CC2=O)cc1 (centres undefined)
→ -1.9	i	1.1	-22	-53	109	101
> O=C(COc1ccc(S(=O)(=O)Nc2ccccc2)cc1)NCc1cccnc1
→ -1.2	i	0.96	2	·	·	113
> COc1ccccc1C(=O)N/C(=C\c1ccc(Br)cc1)C(=O)NCCC(=O)O
→ ·	i	0.91	-2	·	·	107
> Cc1cc(NC(=O)c2ccc3nc(C)sc3c2)no1
→ -2.8	i	0.76	-4	·	·	106
> COc1ccc(CN(CCN(C)C)Cc2ccccc2)c(OC)c1
→ -2.3	i	0.81	-11	40	76	109

Source: PubChem (several laboratories)
